# Screening data as filed in PubChem.
# GIV Gai3 FP = GIV-Galpha-i interaction inhibition. percent of control (FP), % (test concentration not listed). hit rate 0.42% among 210,000. AID 1224905. P08753. Galpha-i3/FITC-GIV peptide fluorescence polarization, 90 min; active compounds read low; scaled: aluminum fluoride 0%, vehicle 100%;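 active = replicate mean at 85% of control or lower, very high polarization wells dropped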;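 also: lower values mean more displacement of the GIV peptide from Galpha-i3; wells of about 15 µL received 100 nL stock; the first replicate is given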
# Target sequence (P08753 whole entry, looked up): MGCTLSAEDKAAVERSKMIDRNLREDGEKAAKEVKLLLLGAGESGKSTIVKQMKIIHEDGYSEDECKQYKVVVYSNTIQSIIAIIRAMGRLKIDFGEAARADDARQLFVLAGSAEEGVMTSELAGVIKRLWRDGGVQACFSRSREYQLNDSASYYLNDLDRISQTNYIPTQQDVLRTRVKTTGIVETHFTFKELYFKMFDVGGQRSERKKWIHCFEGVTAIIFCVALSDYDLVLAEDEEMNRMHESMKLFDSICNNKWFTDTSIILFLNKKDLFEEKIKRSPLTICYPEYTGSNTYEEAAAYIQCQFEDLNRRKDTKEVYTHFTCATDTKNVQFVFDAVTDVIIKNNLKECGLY
# Sa growth inh = inhibitors of Staphylococcus aureus growth at 42 °C; S. aureus RN4220 growth, OD600, 20 h; active compounds read low; hit rate 0.53% among 170,000; relative growth, % (test concentration not listed); AID 720641;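 active = growth at 42 °C up to 50% and 20 or more points under that at 30 °C, or under 10% at both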;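 also: 300 nL library stock went into each well; scaled to the means of positive and negative controls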
# HCMV NEC inh = cytomegalovirus nuclear egress complex inhibition | HTRF UL50-UL53 interaction, normalized percent inhibition | inhibition, % (no concentration beside the values) | hit rate 0.15% among 190,000;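 active = both replicates at 50% or more, plus weaker picks with an unusually low signal ratio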;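 also: stock transfer was 100 nL into about 20 µL; 0% = negative control wells and 100% = wells with untagged competitor protein; inactives centre near -12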
# Sa growth inh second temp = recorded beside Sa growth inh, whose call it bears; relative growth, %; measured here: growth at 30 °C;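 optical density after 20 h as mean of two plates; 100% = untreated growth and lower means inhibition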
# * marks the source's active call; other numbers are inactive results; / = not tested or not shown; & = joins results of further samples.
SMILES,GIV Gai3 FP,Sa growth inh,Sa growth inh second temp,HCMV NEC inh
COc1ccc(/C=C/C(=O)Nc2sc3c(c2C(N)=O)CCC(C)C3)cc1OC (configuration not stated),109,115,83,-42
CC(=O)Nc1ccc(S(=O)(=O)N2CCN(c3ccc(C)c(C)c3)CC2)cc1,110,101,97,12
C=C(C)COc1ccc2c(CCCC)cc(=O)oc2c1,104,94,97,-1
O=C(NCCc1ccccc1)c1cccc(Nc2nc3ccccc3n3nnnc23)c1,104,86,82,/
O=S(=O)(NNc1ncnc2sccc12)c1ccc(Cl)cc1,105,103,99,-8
COc1ccc(-c2noc(CSCC(=O)Nc3ccc(Br)cc3C)n2)cc1OC,101,110,91,-27
Cc1ccc(N2CC(C(=O)N3CCC(C(=O)Nc4cccnc4)CC3)CC2=O)cc1 (configuration not stated),105,102,86,-12
COc1cccc(CNC(=O)CCc2c(C)nc3c4c(C)cc(C)nc4nn3c2C)c1,100,106,88,-2
Cc1nn(-c2ccccc2)c2nc(-c3cccnc3)cc(C(=O)NNC3=NCCC3)c12,/,88,89,-11
O=C(O)Cn1ccccc1=O,100,44*,65*,4
CC(C)c1cc(N2CCOCC2)n2nc(-c3cccnc3)nc2n1,100,/,/,4
CCOC(=O)C1C(=O)CC(=O)C(C(=O)OCC)C1c1ccccc1 (configuration not stated),100,95,82,-7
O=C1CCC(C(=O)NCc2ccccc2)N1 (configuration not stated),103,91,82,-17
Cc1ccc2c(N)c(C(N)=O)sc2n1,111,92,85,-76
CCCCN(CC)C(=O)c1nn(-c2ccc(OC)cc2)c(=O)c2c1c1ccccc1n2C,102,112,85,-20
CCOC(=O)C1CCN(C(=O)Cn2ncc3c4ccccc4n(Cc4ccccc4)c3c2=O)CC1,105,105,87,-28
Cc1ccc(CCNc2nc(C)nc3c(-c4ccc(Cl)cc4)noc23)cc1,94,/,/,11
Cc1cc(O)c(C(c2ccc(Cl)cc2)N2CCN(c3ccccc3)CC2)c(=O)n1Cc1ccco1 (configuration not stated),103,112,90,/
CN(C1CCCCC1)S(=O)(=O)c1ccc2c(c1)c(=O)c(C(=O)N1CCC(Cc3ccccc3)CC1)cn2C,103,/,/,-6
C#CCSc1nsc(SCC#C)c1C#N,102,87,83,-24
O=C(CSc1nnc2ccccn12)N1CCOCC1,101,104,83,/
N#Cc1cc2c(=O)n3ccccc3nc2n(-c2nnc(SCc3ccccc3Cl)s2)c1=O,110,107,86,-49
CCOC(=O)Cc1csc(SCc2c(C(=O)OCC)oc3ccccc23)n1,/,109,98,-1
COc1ccc(S(=O)(=O)N2CCn3c2nc2ccccc23)cc1,99,105,84,-8
CN(CCO)C(=O)c1nc(-c2ccccc2)n(-c2cccc(Cl)c2)n1,97,/,/,-9

# The listing continues.
SMILES,GIV Gai3 FP,Sa growth inh,Sa growth inh second temp,HCMV NEC inh
COc1ccc(Oc2ncccc2NC(=O)c2ccco2)cc1,105,108,87,-3
COC(=O)c1c(NC(=O)c2ccc3c(c2)CC(c2ccccc2)OC3=O)sc2c1CCCC2 (configuration not stated),104,/,/,-4
CC(C)NC(=O)C12CC3CC(C1)CC(C(=O)NC(C)C)(C3)C2,102,98,92,1
CCCNC(=O)N1CCC(c2ccc3c(c2)OCO3)CC1,97,99,79,-7
CC1(C)CCc2cc(/C=N/O)ccc2O1,95,97,101,-8
CCNC(=O)C1=Cc2cc(Br)ccc2OC1,105,/,/,-107
O=C1c2ccccc2C(Nc2ccccc2)N1c1ccccn1 (configuration not stated),114,92,93,-1
O=S(=O)(c1ccc(Br)cc1)N1CCc2[nH]ncc2C1,107,112,84,-17
Cc1ccc(NC(=O)CC(CC(=O)O)c2ccccc2)cc1Cl (configuration not stated),104,116,89,0
CC1CCCCN1c1c(O)c(=O)c1=O (configuration not stated),98,/,/,-25
Cc1nc2ccc(C(=O)OCC(=O)c3ccc(Cl)cc3)cc2nc1C,/,108,84,-6
COc1ccc(C2CC(C(F)(F)F)n3nc(C(=O)NCc4ccco4)c(Br)c3N2)cc1 (configuration not stated),92,/,/,-22
CC1=C(C(=O)Nc2ccc(C)cc2C)C(c2ccc(O)cc2)n2nnnc2N1 (configuration not stated),96,101,91,8
c1ccc(CCn2c(-c3cccs3)nc3ccccc32)cc1,106,75,39,-29
CCCN(CC1CC1)C(=O)CSC1=N/C(=C\c2ccco2)C(=O)N1c1ccc(OC(F)F)cc1,/,103,92,-38
COc1cccc(N2CC(NC(=O)c3ccco3)CC2=O)c1 (configuration not stated),93,103,97,/
Cc1ccc(-n2cc(-c3ccccc3)nc2S(=O)(=O)CC(=O)Nc2ccc(F)cc2)cc1,104,111,92,18
Cc1ccc2oc(C(=O)Nc3ccc(S(=O)(=O)Nc4onc(C)c4C)cc3)cc(=O)c2c1,106,102,82,-30
Cc1cc(O)c(C(=O)c2cnc3cc(-c4ccccc4)nn3c2)cc1Cl,94,/,/,-9
Cc1ccc(C)c(OCCOCCn2c(-c3ccc(Br)cc3)nc3ccccc3c2=O)c1C,106,106,82,-32
Cc1ccc2c(CC(=O)OC(C)C#N)coc2c1 (configuration not stated),/,78,67,-28
CC(C)C1CC(c2csc(N)n2)CCO1 (configuration not stated),103,84,89,-48
CC1CCN(C(=O)COC(=O)CCc2nc3ccccc3s2)CC1,/,101,89,-29
Clc1cccc(CNCc2ccco2)c1,/,90,98,0
COc1cc(NS(=O)(=O)c2csc(C(N)=O)c2)cc(OC)c1,102,/,/,1

# Fetched by structure from above, 2 records:
SMILES,GIV Gai3 FP,Sa growth inh,Sa growth inh second temp,HCMV NEC inh
COc1ccc(/C=C/C(=O)Nc2sc3c(c2C(N)=O)CCC(C)C3)cc1OC (configuration not stated),109,115,83,-42
Cc1nn(-c2ccccc2)c2nc(-c3cccnc3)cc(C(=O)NNC3=NCCC3)c12,/,88,89,-11

# Carrying on.
SMILES,GIV Gai3 FP,Sa growth inh,Sa growth inh second temp,HCMV NEC inh
CCOC(=O)C1CCCN(C(=O)C2CCN(c3ncnc4c3sc3ncccc34)CC2)C1 (configuration not stated),109,/,/,-39
CCOc1ccc(C(=O)/C=C(/Nc2cccc(C)c2)C(=O)O)cc1,106,88,104,/
CC(C)(C)C(=O)Cn1nc(Cl)nc1Cl,100,110,95,-7
O=C(NCc1ccco1)[C@H](Cc1ccccc1)N1Cc2ccccc2C1=O,102,118,85,/
N#CC(C(=O)C1CCCCC1)c1nc2ccccc2[nH]1 (configuration not stated),/,115,80,-10
O=C1CCCS(=O)(=O)c2ccccc21,117,98,98,24
Cn1cccc1/C=C/C(=O)Nc1ccc2c(c1)CCC2,/,73,97,-20
CCc1ccc2c(c1)c(=O)c(S(=O)(=O)c1ccccc1)cn2CC(=O)Nc1ccc(OC)cc1,103,103,90,-26
CCOC(=O)c1cccc(NC(=O)c2ccccc2Cl)c1,102,111,73,/
CCOC(=O)Cn1c(=O)n(-c2ccccc2OC)c2nc(-c3ccccc3)nc(C(N)=O)c21,98,86,88,/
C=CCn1c(SCC(=O)Nc2ccc(C)cc2)nc2sc3c(c2c1=O)CCC3,110&95,/,/,1&-12
Cn1nc(C(=O)Nc2ccc(F)c(Cl)c2)c2c1-c1ccccc1OC2,105,/,/,-14
c1ccc(-c2nc(CN3CCNCC3)co2)cc1,/,104,97,-9
Cc1nc2cc(NC(=O)COc3ccccc3C#N)ccc2n1-c1ccccc1,/,101,79,-17
COc1cc2c(cc1OC)C(C(=O)NCC1CCCO1)C(c1cccnc1)N(C)C2=O (configuration not stated),101,88,86,-21
CCCC(=O)N(c1ccc2oc(C)c(C(=O)OCC)c2c1)S(=O)(=O)c1ccc(CC)cc1,103,/,/,-16
Cc1cc(C)nc(SCc2nc3ccccc3c(=O)n2-c2ccc(C(F)(F)F)cc2)n1,/,112,82,7
CCC1(CC)OC(c2ccc(NC(C)=O)cc2)Nc2ccccc21 (configuration not stated),/,116,91,6
O=C(Nc1ccc(N2CCCCC2)cc1)Nc1cccc(Cl)c1,105,86,83,-24
CC1CCC2C(C1)Nc1c(C(=O)O)cccc1C2(C)C (configuration not stated),100,169,113,-10
O=C(CSc1ccc(Br)cc1)Nc1ccc(S(=O)(=O)NCc2ccco2)cc1,/,105,97,-3
O=C(CCSc1nnc2scc(-c3ccccc3)n12)Nc1nc(-c2ccccc2)ns1,103,95,88,-6
O=c1oc2ccccc2n1S(=O)(=O)c1c(F)c(F)c(F)c(F)c1F,101,62,36,-37
CCOc1ccc(N(Cc2cccc3ccccc23)C(=O)c2ccco2)cc1,/,87,95,-11
Cc1onc(-c2c(F)cccc2Cl)c1C(=O)Nc1ccc(S(=O)(=O)N2CCOCC2)cc1,/,84,86,-5

# (more compounds)
SMILES,GIV Gai3 FP,Sa growth inh,Sa growth inh second temp,HCMV NEC inh
O=C(C(c1ccccc1)c1ccccc1)N1CCCC1,/,104,92,-3
Cc1ccc(-c2c(NCC3CCCO3)c(=O)c2=O)cc1 (configuration not stated),102,/,/,-85
Cc1ccc(NC(=O)CN2C(=O)COc3ccc(S(=O)(=O)NC4CCCC4)cc32)c(Cl)c1,102,96,79,/
OC(c1ccccc1)(c1ccccc1)C1CCN(c2ccc3nnc(-c4ccccc4)n3n2)CC1,98,/,/,-16
CC(=O)Nc1cccc(NC(=O)c2cc(C(C)C)n(C3CCS(=O)(=O)C3)n2)c1 (configuration not stated),107,/,/,12
CC(=O)n1c2ccc(C)cc2c2nc3ccccc3nc21,/,121,103,6
S=c1[nH]nc(CNc2cccc(Cl)c2)o1,101,108,90,-14
O=C(O)c1ccc(N=Nc2c(O)[nH]c(=O)[nH]c2=O)cc1,110,96,103,-42
Cc1ccc(NC(=O)[C@H](CSCc2ccccc2)N2Cc3ccccc3C2=O)cc1,104,99,90,-14
CCOc1cc(CNc2ccc3c(c2)CCC3)ccc1O,105,103,56,-7
CCCN1CN(Cc2ccccc2)CC2=C1CC(C)(C)CC2=O,108,92,97,11
CCN1C(=O)/C(=C/c2c(N3CCCCC3)nc3ccccn3c2=O)SC1=S,-75*,96,85,2
O=C(COC(=O)C12CC3CC(CC(Br)(C3)C1)C2)Nc1ccccc1,/,90,96,12
CCC(Oc1ccccc1)C(=O)Nc1cc(-c2ccccc2OC)nn1-c1ccccc1 (configuration not stated),100,95,87,/
COc1ccc(-c2cc(=O)[nH][nH]2)cc1,104,73,58,-4
Cc1nc2cccnc2n1C1CCN(S(=O)(=O)c2ccc(C(C)C)cc2)CC1,105,104,104,/
CCOCCC(=O)N1CCCCC1CC (configuration not stated),100,102,105,14
Cc1ccc(-n2nc3c(c2NC(=O)COc2ccc(Cl)cc2Cl)CS(=O)C3)cc1 (configuration not stated),105,103,92,-10
CC1CCCCN1C(=O)CCn1cnc2onc(-c3ccc(F)cc3)c2c1=O (configuration not stated),100,95,102,-2
Cc1nn(C)c2c1c(-c1ccccc1)cc(=O)n2Cc1ccc(F)cc1,100,81,100,/
COc1cccc(=O)c2c(C)n(CC(=O)c3ccccc3)c(C)c12,132,87,76,/
CC(=O)NC1N=C(C)N(c2ccccc2)C1=O (configuration not stated),102,111,87,7
CC(Sc1ccccc1)C(=O)N1CCN(c2ccccc2F)CC1 (configuration not stated),/,102,99,-15
Cc1ccc(N2C(=O)CC(Sc3nnc(C)s3)C2=O)cc1 (configuration not stated),100,98,85,-8
CCOc1ccc(OCC)c(NC(=O)c2cc(S(=O)(=O)N3CCc4ccccc43)cn2C)c1,95,114,97,-16

# The list continues.
SMILES,GIV Gai3 FP,Sa growth inh,Sa growth inh second temp,HCMV NEC inh
CC(=O)N1c2c(cc(Br)cc2S(=O)(=O)N2CCN(c3cc(C)ccc3C)CC2)CC1C (configuration not stated),102,85,89,-14
NC(=O)CSc1ccc2ccccc2c1,107,115,83,-43
O=C1NC(=O)N(c2ccc(F)cc2)C(=O)/C1=C/c1ccc(O)c(Br)c1,104,/,/,-13
Cc1nn(-c2cccc(Cl)c2)c2nc(-c3cccnc3)cc(C(F)(F)F)c12,98,94,87,-26
CCN1C2=C(C#N)C(=O)CCCN2C(=O)c2ccccc21,/,97,91,-31
Cn1c(=O)c(-c2noc(CCC(=O)NC3CCCCC3)n2)nn(-c2ccccc2)c1=O,100,/,/,-84

# In the list so far, these contain fluorine.
SMILES,GIV Gai3 FP,Sa growth inh,Sa growth inh second temp,HCMV NEC inh
COc1ccc(C2CC(C(F)(F)F)n3nc(C(=O)NCc4ccco4)c(Br)c3N2)cc1 (configuration not stated),92,/,/,-22
CCCN(CC1CC1)C(=O)CSC1=N/C(=C\c2ccco2)C(=O)N1c1ccc(OC(F)F)cc1,/,103,92,-38
Cc1ccc(-n2cc(-c3ccccc3)nc2S(=O)(=O)CC(=O)Nc2ccc(F)cc2)cc1,104,111,92,18
Cn1nc(C(=O)Nc2ccc(F)c(Cl)c2)c2c1-c1ccccc1OC2,105,/,/,-14
Cc1cc(C)nc(SCc2nc3ccccc3c(=O)n2-c2ccc(C(F)(F)F)cc2)n1,/,112,82,7
O=c1oc2ccccc2n1S(=O)(=O)c1c(F)c(F)c(F)c(F)c1F,101,62,36,-37
Cc1onc(-c2c(F)cccc2Cl)c1C(=O)Nc1ccc(S(=O)(=O)N2CCOCC2)cc1,/,84,86,-5
CC1CCCCN1C(=O)CCn1cnc2onc(-c3ccc(F)cc3)c2c1=O (configuration not stated),100,95,102,-2
Cc1nn(C)c2c1c(-c1ccccc1)cc(=O)n2Cc1ccc(F)cc1,100,81,100,/
CC(Sc1ccccc1)C(=O)N1CCN(c2ccccc2F)CC1 (configuration not stated),/,102,99,-15
O=C1NC(=O)N(c2ccc(F)cc2)C(=O)/C1=C/c1ccc(O)c(Br)c1,104,/,/,-13
Cc1nn(-c2cccc(Cl)c2)c2nc(-c3cccnc3)cc(C(F)(F)F)c12,98,94,87,-26
